MgrA DNA FP: S. aureus MgrA activity modulators, primary screen, biochemical, S. aureus Newman, fluorescence polarization. inhibition, %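 (about 10 µg/mL by stock and volumes)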. MgrA-DNA binding. AID 602314, 2012. 84,000 tested, 0.13% active;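 active = above 50% in either of two replicates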;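 note: 0% = protein plus DNA without compound and 100% = DNA alone without protein; higher means less MgrA bound to DNA so lower polarization; one replicate is shown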
Sa helicase inh: inhibitors of S. aureus replicative helicase, primary screen, biochemical, fluorescence unwinding readout. purified S. aureus helicase, fluorescence unwinding assay; about half of the hits fall short of the stated cut. inhibition, %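 (tested at about 80 µM)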. 120,000 tested, 0.05% active;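 active = both duplicates at 50% or more, or one of them with a favoured structure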;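 note: 0% = mean of negative control wells and 100% = mean of positive control wells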
* hit, by the source's call; & = joins results of further samples. Some of the compounds tested, so the mix of outcomes need not match the whole.

The opening seven entries (preview)
Screening O=S(=O)(NCc1nc2ccccc2[nH]1)c1ccc(Cl)cc1 returned Sa helicase inh 19.
`O=S(=O)(c1ccc(-c2ccno2)s1)N1CCN(c2ccncc2)CC1` gave Sa helicase inh 19.
For Cc1sc2c(c1C)C(O)=C(C(=O)Nc1ccc(OC(F)(F)F)cc1)S(=O)(=O)N2C the results were MgrA DNA FP 0.4.
Screening Cc1ccc(S(=O)(=O)Nc2ccc(NC(=O)c3sc4cc(C)ccc4c3Cl)cc2)cc1 returned MgrA DNA FP -0.3.
CCN(C(=S)NC(=O)c1ccco1)c1cccc2ccccc12 was read as Sa helicase inh -5.
`COc1ccc(OC)c(Nc2cc(C)nc3nc(C)nn23)c1` gave Sa helicase inh 9.
For O=C(Oc1cc(=O)oc2c1c(=O)n1c3c(cccc23)CCC1)c1ccccc1 the results were Sa helicase inh 21.

Results, from the start:
Screening O=S(=O)(NCc1nc2ccccc2[nH]1)c1ccc(Cl)cc1 returned Sa helicase inh 19.
`O=S(=O)(c1ccc(-c2ccno2)s1)N1CCN(c2ccncc2)CC1` gave Sa helicase inh 19.
For Cc1sc2c(c1C)C(O)=C(C(=O)Nc1ccc(OC(F)(F)F)cc1)S(=O)(=O)N2C the results were MgrA DNA FP 0.4.
Screening Cc1ccc(S(=O)(=O)Nc2ccc(NC(=O)c3sc4cc(C)ccc4c3Cl)cc2)cc1 returned MgrA DNA FP -0.3.
CCN(C(=S)NC(=O)c1ccco1)c1cccc2ccccc12 was read as Sa helicase inh -5.
`COc1ccc(OC)c(Nc2cc(C)nc3nc(C)nn23)c1` gave Sa helicase inh 9.
For O=C(Oc1cc(=O)oc2c1c(=O)n1c3c(cccc23)CCC1)c1ccccc1 the results were Sa helicase inh 21.
`N#CC1=C(SCc2ccccc2)NC2=C(C(=O)CCC2)C1c1ccc(Cl)cc1` (stereo unspecified) gave MgrA DNA FP -1.8 and Sa helicase inh -5.
For O=C(c1ccc(S(=O)(=O)NCc2ccco2)cc1)N1CCc2ccccc21 the results were Sa helicase inh -13.
COc1ccc(/C=C2/SC(N)=NC2=O)cc1OCc1ccc(Cl)cc1Cl was read as MgrA DNA FP 5.0.
For O=C(O)CN1C(=O)/C(=C\c2ccccc2)SC1=S the results were MgrA DNA FP 1.3 and Sa helicase inh 5.
For CSc1nc2ncc(C(=O)O)c(N)n2n1 the results were MgrA DNA FP -2.7.
Screening O=C(O)C1CCN(S(=O)(=O)c2ccc3ccccc3c2)CC1 returned Sa helicase inh -4.
`CCOC(=O)C1=C(C)NC(C)=C(C(=O)OCC)C1C(=O)OCc1cc(=O)n2cc(C)ccc2n1` gave Sa helicase inh -1.
For O=C(/C=C/C=C/c1ccccc1)CC1(O)C(=O)Nc2ccc(Br)cc21 (stereo unspecified) the results were MgrA DNA FP 3.2 and Sa helicase inh -4.
CCCNC(=O)NS(=O)(=O)c1ccc(Cl)cc1 was read as MgrA DNA FP 4.5&-1.6.
COc1ccc(/C=C2\SC(=O)N(CCC(=O)N3CCCCC3)C2=O)cc1OC was read as MgrA DNA FP -1.6.
For O=S(=O)(Nc1ccccn1)c1ccc(C(F)(F)F)cc1Cl the results were MgrA DNA FP 2.2.
O=c1[nH]c2cc(Cl)c(Cl)cc2c(O)c1-c1ccccc1 was read as MgrA DNA FP -1.8.
Screening O=C(NCCc1ccccc1)c1cnc2ccccn2c1=O returned MgrA DNA FP 1.5 and Sa helicase inh 1.
`CC1CCN(C(=O)C(C)Sc2nnc(Nc3ccccc3F)s2)CC1` (stereo unspecified) gave Sa helicase inh -8.
For O=C(Nc1ccc2c(c1)OCCO2)Oc1ccccc1 the results were Sa helicase inh -15.
Cc1cccc(NC(=O)c2coc3ccccc3c2=O)n1 was read as Sa helicase inh -18.
Screening O=C(Nc1ccc(F)cc1)n1ncc2cc(Cl)ccc21 returned Sa helicase inh -6.
Cc1occc1-c1nnc(SCC(=O)Nc2ccc3c(c2)OCO3)n1CC(C)C was read as MgrA DNA FP -1.4 and Sa helicase inh 14.
For CCOC(=O)c1c(C=O)oc2c(C)cc(OC(=O)c3cccc([N+](=O)[O-])c3)c(Br)c12 the results were MgrA DNA FP -1.3.
CCc1nnc(NC(=O)C(C)c2c(C)n[nH]c2C)s1 (stereo unspecified) was read as Sa helicase inh 8.
`CCOc1cc(C(=O)OCc2nnc(-c3ccccc3)o2)ccc1OCC(=O)N1CCCCC1` gave Sa helicase inh -12.
`O=C(NCCCN1CCOCC1)Nc1ccc(Cl)cc1` gave MgrA DNA FP 3.6 and Sa helicase inh 4.
Screening NC(=O)Cn1c(COC(=O)Cc2coc3ccc4ccccc4c23)nc2ccccc2c1=O returned Sa helicase inh -16.
For Nc1ccccc1S(=O)(=O)NC1=NCCCCC1 the results were Sa helicase inh -18.
Screening CC(C)c1cc(C(C)C)c(S(=O)(=O)NCCO)c(C(C)C)c1 returned MgrA DNA FP 0.0.
`Cc1ccc2nc(COc3ncnc4ccccc34)cc(=O)n2c1` gave Sa helicase inh 7.
O=C1NC(c2ccccc2)=NC1(Nc1ccccn1)C(F)(F)F (stereo unspecified) was read as Sa helicase inh 10.
COc1ccc(C(=O)CSc2ncn(-c3ccccc3)n2)cc1OC was read as MgrA DNA FP 0.8 and Sa helicase inh 9.
`O=S(=O)(N1CCCCC1)N1CCCCC1` gave Sa helicase inh -19.
Screening Cc1ccccc1NC(=O)CN1C(=O)CSc2ccccc21 returned Sa helicase inh 16.
Screening O=C(OCc1ccccc1)c1ccc2c(c1)OCO2 returned MgrA DNA FP -1.7 and Sa helicase inh -8.
For Nc1ccc(-c2cnco2)cc1 the results were MgrA DNA FP 0.6.
Cc1cc(NCc2ccccc2)c2ccccc2n1 was read as Sa helicase inh 7.

Of the compounds above, 3 have an NH in an aromatic ring:
Screening O=S(=O)(NCc1nc2ccccc2[nH]1)c1ccc(Cl)cc1 returned Sa helicase inh 19.
O=c1[nH]c2cc(Cl)c(Cl)cc2c(O)c1-c1ccccc1 was read as MgrA DNA FP -1.8.
CCc1nnc(NC(=O)C(C)c2c(C)n[nH]c2C)s1 (stereo unspecified) was read as Sa helicase inh 8.

Later entries
`CCC(C)NC(=O)CSc1nnc(-c2ccc(C)c(C)c2)o1` (stereo unspecified) gave Sa helicase inh 0.
For CCOC(=O)C1=C(C(C)c2ccccc2)NC(=O)NC1C (stereo unspecified) the results were MgrA DNA FP -0.5.
`COc1ccc(/C=C2/C(=N)N3N=C(Cc4ccccc4)SC3=NC2=O)cc1OC` gave MgrA DNA FP 3.5 and Sa helicase inh -12.
For O=C(NCc1ccco1)c1cc(-c2ccc(F)cc2)no1 the results were MgrA DNA FP -0.3 and Sa helicase inh -12.
For O=C1c2cccnc2C(=O)N1Cc1ccc(S(=O)(=O)NCc2ccccc2)cc1 the results were MgrA DNA FP 4.8 and Sa helicase inh 10.
Screening CCCCS(=O)(=O)Nc1ccc(C(=O)NCC2CCCO2)cc1 (stereo unspecified) returned MgrA DNA FP 1.6 and Sa helicase inh 8.
For O=C(c1ccncc1)N1C2C=CC(C2)C1(C(F)(F)F)C(F)(F)F (stereo unspecified) the results were MgrA DNA FP 1.7 and Sa helicase inh 7.
For Clc1ncnc2sc3c(c12)CCCC3 the results were MgrA DNA FP 0.4 and Sa helicase inh 4.
`CCOC(=O)Cc1c(C)nc2cc(C)nn2c1C` gave MgrA DNA FP 1.4 and Sa helicase inh -10.
Screening O=C(CSc1cn(CCNC(=O)c2ccccc2)c2ccccc12)Nc1nccs1 returned Sa helicase inh 6.
`O=C(O)C1(S(=O)(=O)c2ccc(Cl)cc2)CCCC1` gave MgrA DNA FP -0.3 and Sa helicase inh 0.
For Cc1ccc(/C=C/C(=O)O)cc1S(=O)(=O)N1CCCCC1 the results were Sa helicase inh 7.
`Cn1cnnc1Sc1ccc(Cl)cc1NS(=O)(=O)c1ccc2c(c1)OCCO2` gave Sa helicase inh 1.
CCN1C(=O)N(CC)C2NC(=O)NC21 (stereo unspecified) was read as Sa helicase inh 30.
`CN(CCc1ccccn1)C(=O)c1nn2c(C(F)(F)F)cc(-c3ccco3)nc2c1Cl` gave MgrA DNA FP -1.3 and Sa helicase inh -1.
`CCOCCn1c(=NC(=O)C(C)C)sc2cc(C)ccc21` gave Sa helicase inh 5.
O=C(CN1C(=O)c2ccc(Br)cc2C1=O)OC1CCCCC1 was read as Sa helicase inh -11.
Cn1c(C2CC2)nc2ccccc21 was read as MgrA DNA FP 2.0 and Sa helicase inh -8.
Screening Cc1cc(C)cc(-n2ccn3c(CCC(=O)O)nnc3c2=O)c1 returned Sa helicase inh -8.
COC(=O)c1ccccc1NC(=O)COC(=O)c1cc2ccccc2o1 was read as MgrA DNA FP 6.6 and Sa helicase inh -27.

Reprinted at random: five records from the list.
For O=C1c2cccnc2C(=O)N1Cc1ccc(S(=O)(=O)NCc2ccccc2)cc1 the results were MgrA DNA FP 4.8 and Sa helicase inh 10.
`CC1CCN(C(=O)C(C)Sc2nnc(Nc3ccccc3F)s2)CC1` (stereo unspecified) gave Sa helicase inh -8.
Cc1cccc(NC(=O)c2coc3ccccc3c2=O)n1 was read as Sa helicase inh -18.
Screening NC(=O)Cn1c(COC(=O)Cc2coc3ccc4ccccc4c23)nc2ccccc2c1=O returned Sa helicase inh -16.
Cc1occc1-c1nnc(SCC(=O)Nc2ccc3c(c2)OCO3)n1CC(C)C was read as MgrA DNA FP -1.4 and Sa helicase inh 14.

Next part
CCNC(=O)c1cccc2c1-c1ccccc1C2=O was read as Sa helicase inh 5.
For O=C(Cn1cnc2c(cnn2-c2ccccc2)c1=O)c1ccccc1 the results were MgrA DNA FP -2.2 and Sa helicase inh 5.
CN(C)CCN1CCNCC1 was read as MgrA DNA FP 6.8 and Sa helicase inh 9.
For CCCCn1c(C2CCCO2)nc2ccccc21 (stereo unspecified) the results were Sa helicase inh 11.
For CCOC(=O)C1=C(C)N=c2s/c(=C\c3ccc(O)c(Br)c3)c(=O)n2C1c1ccccc1 (stereo unspecified) the results were MgrA DNA FP 0.8.
For Cc1cccc(C(=O)Cc2ccccc2O)c1 the results were MgrA DNA FP -0.1 and Sa helicase inh -24.
CCCCn1c(CCC(=O)O)ccc1-c1cccs1 was read as Sa helicase inh -15.
For CN(CC(=O)O)Cc1nc2ccccc2[nH]1 the results were MgrA DNA FP 1.6 and Sa helicase inh 1.
Screening COC(=O)Nc1c(-c2ccccc2)nc2ccc(C)cn12 returned MgrA DNA FP 0.6 and Sa helicase inh 6.
Screening C=Cc1c(C)c2cc3[nH]c(cc4nc(cc5nc(cc1[nH]2)C(C)=C5CCC(=O)O)C(CCC(=O)O)=C4C)c(C)c3C=C returned MgrA DNA FP 20.
`COc1cccc(-c2nnc(SCN3C(=O)c4ccccc4C3=O)n2Cc2ccco2)c1` gave Sa helicase inh 3.
`O=[N+]([O-])c1csc(C2Nc3ccccc3N2)c1` gave MgrA DNA FP 0.2.
Screening Cn1c(CC#N)[n+](C)c2ccccc21 returned Sa helicase inh -13.
Screening CCc1nnc2c3cnn(-c4ccccc4)c3ncn12 returned Sa helicase inh -7.
Screening CC(CCc1ccccc1)NC(=O)COc1nc2ccccc2nc1N1CCOCC1 (stereo unspecified) returned Sa helicase inh -14.
For CC1CN(/C=C(\C#N)S(=O)(=O)Cc2ccc(Cl)cc2)CC(C)O1 (stereo unspecified) the results were MgrA DNA FP 3.0.
`Cc1nc2c(ccc3nc(NC(=O)c4ccc(N5C(=O)CCC5=O)cc4)sc32)s1` gave Sa helicase inh 6.
For CCOc1ccc(NC(=O)C(C)Oc2ccccc2)cc1 (stereo unspecified) the results were MgrA DNA FP 0.7 and Sa helicase inh 12.
`Cc1cc(C)c(N=C(NC#N)Nc2c(C)cc(C)cc2C)c(C)c1` gave Sa helicase inh -7.
Screening O=C(COc1ccc2ccccc2c1Br)NCc1ccco1 returned MgrA DNA FP 3.3 and Sa helicase inh 6.
For O=S(=O)(CCC(F)(Br)C(F)(F)Br)c1ccccc1 (stereo unspecified) the results were MgrA DNA FP 1.2.
For COc1ccc(C(=O)N2CCN(c3c(C)cccc3C)CC2)cc1OC the results were MgrA DNA FP -1.1 and Sa helicase inh 10.
For Cc1cc(NC(=O)c2ccccc2)nc2c1c(=O)oc1ccccc12 the results were Sa helicase inh -5.
Screening O=C1CNCC(=O)N1CCc1ccccc1 returned Sa helicase inh 3.
Cc1cc(/C=C/C(=O)N2CCN(S(=O)(=O)c3cccs3)CC2)c(C)n1-c1ccnn1C(C)C was read as Sa helicase inh 1.
For Cc1cc(C)c2c(=O)[nH]c(=O)n(Cc3ccccc3)c2n1 the results were Sa helicase inh -51.
`COc1cccc2ccc(=O)[nH]c12` gave Sa helicase inh -4.
Screening S=C(NCc1cccnc1)Nc1ccccc1 returned Sa helicase inh -3.
`O=C1CCC(C(=O)OCC(=O)Nc2ccc3c(c2)OCO3)=NN1` gave Sa helicase inh 3.
Cn1cnc2c(=O)oc3ccc(S(=O)(=O)NCCC4=CCCCC4)cc3c21 was read as Sa helicase inh -19.
Cc1sc2ncn(CC(=O)NCC3COc4ccccc4O3)c(=O)c2c1S(=O)(=O)N1CC(C)CC(C)C1 (stereo unspecified) was read as Sa helicase inh 9.
Cc1ccc(N2CC(=O)N(C)C2=S)cc1 was read as MgrA DNA FP -0.8 and Sa helicase inh 9.
Screening O=C(Nc1ccc(Br)cc1)C1C(=O)NC23CCCCC2C1c1ccccc1O3 (stereo unspecified) returned Sa helicase inh 9.
For CCOC(=O)c1cnn(C(N)=S)c1N the results were MgrA DNA FP -3.5.
Screening CCOC(=O)C(N)c1ccccc1 (stereo unspecified) returned MgrA DNA FP 2.2.
`COc1ccc(/C=C2\CCc3ccccc3C2=O)cc1` gave MgrA DNA FP 1.7.
For C=CCC(NCc1cccs1)c1ccco1 (stereo unspecified) the results were MgrA DNA FP -3.9 and Sa helicase inh 7.
Cc1noc(-c2cc3cc(Br)ccc3oc2=O)n1 was read as MgrA DNA FP -1.4 and Sa helicase inh 3.
`CC(C)N(C(=O)CSc1ccccn1)c1ccccc1` gave MgrA DNA FP -1.4 and Sa helicase inh -16.
O=C(c1cc2ccccc2c(=O)s1)N1CCOCC1 was read as Sa helicase inh 9.
